Pf gametocyte: P. falciparum stage V gametocyte viability inhibition; P. falciparum stage V gametocytes, ATP luminescence, 24 h; inhibition, % at 10.9 µM; 0.065% of 150,000 active; AID 743093;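 active = inhibition above the mean plus 3 SD of compounds within the control limits, set per campaign, cut at about 38% in these data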;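 also: 0% = DMSO wells and 100% = medium only without gametocytes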
Avidin fluor: compound fluoresces at 488/530 nm on avidin beads. compound fluorescence 488/530 nm, flow cytometry; stronger effect = higher value. fluorescence (KMESF) at 10 µM. 0.38% of 220,000 active; in the data active = fluorescence above about 47; also: inactives centre near 10
RGS4-Gao reg: human RGS4-Galphao interaction regulation; 0.33% of 220,000 active; Multiplexed bead flow cytometry, RGS4-Galphao binding; actives lie on both sides; binding response (% of control), % at 10 µM; P09471; in the data active = binding response below about 49% or above about 150%; inactive = in between;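 also: fluorescent Galphao activated with aluminum fluoride binding bead-coupled RGS4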
Target sequence (P09471 whole entry, looked up): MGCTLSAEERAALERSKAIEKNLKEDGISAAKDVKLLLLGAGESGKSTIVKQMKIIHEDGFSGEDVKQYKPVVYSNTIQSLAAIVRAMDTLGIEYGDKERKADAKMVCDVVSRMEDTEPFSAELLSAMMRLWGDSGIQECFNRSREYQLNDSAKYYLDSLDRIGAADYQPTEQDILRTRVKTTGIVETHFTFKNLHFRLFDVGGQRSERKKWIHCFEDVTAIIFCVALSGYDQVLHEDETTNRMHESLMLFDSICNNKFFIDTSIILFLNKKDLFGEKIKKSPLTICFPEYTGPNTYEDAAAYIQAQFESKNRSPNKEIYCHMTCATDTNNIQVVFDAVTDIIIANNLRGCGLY
RGS8-Gao: regulators of human RGS8-Galphao interaction; P09471; 0.34% of 220,000 active; multiplexed bead flow cytometry, RGS8-Galphao binding; actives lie on both sides; response (percent of control binding), % at 10 µM; in the data active = response below about 60% or above about 140%; inactive = in between;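 also: Galphao activated as the GDP aluminium fluoride complex binding bead-coupled RGS8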
RGS7-Gao reg: modulates binding of RGS7 to human Galphao | P09471 | Multiplexed bead flow cytometry; actives lie on both sides | binding response (% of control), % at 10 µM | 0.35% of 220,000 active; in the data active = binding response below about 49% or above about 150%; inconclusive = no clear call, values can overlap the other calls; inactive = in between;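 also: fluorescent Galphao held in activated GDP-AlF4 state binding bead-coupled RGS7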
* hit, by the source's call; ? = inconclusive; / = no result given.

Assay codes – A = Pf gametocyte; B = Avidin fluor; C = RGS4-Gao reg; D = RGS8-Gao; E = RGS7-Gao reg
Cn1c(SCC(=O)c2ccc3c(c2)OCCO3)nnc1C(F)(F)F
  A: -3 | B: 7 | C: 104 | D: 103 | E: ?
O=C(O)C1c2ccccc2C(=O)N(Cc2ccc(F)cc2)C1c1ccncc1 (stereo not given)
  A: 5 | B: 3 | C: 100 | D: 102 | E: ?
COc1cc(OC)c(OC)cc1/C=N/Nc1ncnc2c1[nH]c1ccc(C)cc12
  A: 7 | B: 7 | C: 95 | D: 99 | E: ?
CC(C)(C)c1cc2nc(N)nc(N)n2n1
  A: 9 | B: 12 | C: 96 | D: 98 | E: ?
COc1cc(C(F)(F)F)c(C(=O)N(C)c2ccc(Cl)cc2)cn1
  A: 22 | B: 6 | C: 102 | D: 104 | E: ?
Cc1c(/C=N/NC(N)=O)c2ccccn2c1C(=O)c1ccncc1
  A: 11 | B: 6 | C: 101 | D: 100 | E: ?
O=C(Nc1ccccc1N1CCCCC1)c1ncoc1-c1cccc(F)c1
  A: -16 | B: 9 | C: 99 | D: 98 | E: ?
COc1ccccc1C(CCN(Cc1ccccc1)C(C)=O)c1ccco1 (stereo not given)
  A: -21 | B: 13 | C: 98 | D: 99 | E: ?
CC(=O)Nc1cccc(/C(C)=N/NC(=O)c2ccc(NS(=O)(=O)c3cccs3)cc2)c1
  A: -23 | B: 7 | C: 106 | D: 102 | E: ?
COc1ccccc1N1C(=O)C2C(C(=O)c3ccccc3)=NN(c3ccc(Br)cc3)C2C1=O (stereo not given)
  A: -25 | B: 10 | C: 89 | D: 90 | E: ?
CCOC(=O)N1CCN(c2nc(N(c3ccccc3)c3ccccc3)nc(-n3ccnc3)n2)CC1
  A: 13 | B: 7 | C: 99 | D: 100 | E: ?
Nc1ncnc(Nc2cccc(F)c2)n1
  A: 2 | B: 12 | C: 102 | D: 96 | E: ?
COc1ccc(Nc2nc(-c3ccc(OC)cc3)c(CCC(=O)O)s2)cc1
  A: -31 | B: 4 | C: 98 | D: 97 | E: ?
COC(=O)C1=NN(c2ccc(C)cc2)C2C(=O)N(c3ccccc3OC)C(=O)C12 (stereo not given)
  A: -24 | B: 6 | C: 92 | D: 97 | E: ?
CCN(CC)CCNc1nc2nonc2nc1NCCN(CC)CC
  A: -15 | B: 8 | C: 99 | D: 97 | E: ?

Reprinted from the part before: 6 entries, followed by the next part.
Assay codes – A = Pf gametocyte; B = Avidin fluor; C = RGS4-Gao reg; D = RGS8-Gao; E = RGS7-Gao reg
COc1ccccc1N1C(=O)C2C(C(=O)c3ccccc3)=NN(c3ccc(Br)cc3)C2C1=O (stereo not given)
  A: -25 | B: 10 | C: 89 | D: 90 | E: ?
CCOC(=O)N1CCN(c2nc(N(c3ccccc3)c3ccccc3)nc(-n3ccnc3)n2)CC1
  A: 13 | B: 7 | C: 99 | D: 100 | E: ?
Nc1ncnc(Nc2cccc(F)c2)n1
  A: 2 | B: 12 | C: 102 | D: 96 | E: ?
COc1ccc(Nc2nc(-c3ccc(OC)cc3)c(CCC(=O)O)s2)cc1
  A: -31 | B: 4 | C: 98 | D: 97 | E: ?
COC(=O)C1=NN(c2ccc(C)cc2)C2C(=O)N(c3ccccc3OC)C(=O)C12 (stereo not given)
  A: -24 | B: 6 | C: 92 | D: 97 | E: ?
CCN(CC)CCNc1nc2nonc2nc1NCCN(CC)CC
  A: -15 | B: 8 | C: 99 | D: 97 | E: ?
O=C(CCN1CCCC1)c1cccs1
  A: / | B: 4 | C: 102 | D: 100 | E: ?
COc1cc(NC(=O)c2nccnc2N)cc(C(=O)Nc2cccc(C(F)(F)F)c2)c1
  A: / | B: 9 | C: 100 | D: 98 | E: ?
Cc1nc(-c2cccnc2)sc1C(=O)N/N=C/c1ccccc1Cl
  A: -3 | B: 6 | C: 101 | D: 100 | E: ?
NC(=O)c1cc(NC(=O)c2ccc(NS(=O)(=O)c3cccs3)cc2)cc(C(N)=O)c1
  A: 0 | B: 8 | C: 101 | D: 100 | E: ?
COc1ccc(OC)c(CN(CCN2CCOCC2)S(=O)(=O)c2ccc(NC(C)=O)cc2)c1
  A: 0 | B: 7 | C: 100 | D: 99 | E: ?
CC(=O)N(CCC(c1ccco1)C(C)C)Cc1ccc(Cl)cc1 (stereo not given)
  A: 17 | B: 7 | C: 99 | D: 99 | E: ?
O=C(Nc1nccs1)c1cc2cc(Cl)ccc2oc1=O
  A: -1 | B: 19 | C: 98 | D: 100 | E: ?
CCOc1ccc(N2C(=O)S/C(=C\c3ccc(O)c(OC)c3)C2=O)cc1
  A: -12 | B: 6 | C: 100 | D: 98 | E: ?
Cc1cc(N/N=C/c2ccc(F)cc2)nc(-n2nc(C)cc2C)n1
  A: 2 | B: 9 | C: 103 | D: 103 | E: ?
COc1ccc(Nc2nc(=O)c3cc([N+](=O)[O-])ccc3s2)cc1
  A: -12 | B: 6 | C: 98 | D: 100 | E: ?
COc1cccc(OC)c1C1=NC(C)(C)CO1
  A: 14 | B: 4 | C: 103 | D: 102 | E: ?
CC1CN=C(N(C(=O)Nc2ccccc2)C(C)c2ccccc2)S1 (stereo not given)
  A: -1 | B: 6 | C: 102 | D: 98 | E: ?
O=c1nc(Nc2ccc(Br)cc2)sc2ccc([N+](=O)[O-])cc12
  A: -16 | B: 13 | C: 107 | D: 95 | E: ?

One compound at a time, as listed above.
`CC(=O)N(CCC(c1ccco1)C(C)C)Cc1ccc(Cl)cc1` (stereo not given) across the screens: Pf gametocyte: 17; Avidin fluor: 7; RGS4-Gao reg: 99; RGS8-Gao: 99; RGS7-Gao reg: ?
`COc1ccc(OC)c(CN(CCN2CCOCC2)S(=O)(=O)c2ccc(NC(C)=O)cc2)c1` across the screens: Pf gametocyte: 0; Avidin fluor: 7; RGS4-Gao reg: 100; RGS8-Gao: 99; RGS7-Gao reg: ?

Screening results (PubChem BioAssay)

The list is partial (hit frequency here may not be typical).
